Assay outcomes (PubChem)
Arbovirus inh = arbovirus infection inhibition. arbovirus infection cell-based antiviral screen. inhibition, % at 10 µM. actives 0.37% (n = 200,000);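 active means inhibition from about 30%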;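 further: bluetongue infection of BSR cells; cell survival read as ATP light after 72 h; 0% = infected wells without compound and 100% = uninfected wells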
YopH inh = inhibitors of Yersinia enterocolitica YopH tyrosine phosphatase | fluorescence Ex485/Em525 | inhibition, %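 (about 10 µM by stock and volumes)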 | actives 0.16% (n = 140,000);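 active means inhibition of 50% or more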;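 further: controls were vehicle for no effect and minimum signal wells for full effect; inactives centre near -20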
Mtb betalactam = beta-lactam sensitization of Mtb H37Rv; actives 0.27% (n = 330,000); M. tuberculosis H37Rv growth with meropenem, percent inhibition; hits of this screen are not shown here; inhibition, % at 25 µM; AID 434955;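 active means about 74% or more and at least 40 points above the plate without the antibiotic, then above 30% in a dose series; inconclusive means first-round hits that could not be retested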;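 further: growth measured after seven days incubation then overnight dye step; 0% = bacteria only wells and 100% = bacteria with antibiotic; twin plates without the antibiotic show which effects depend on it; some results filed as inactive read as strong as hits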
RecA splice inh = inhibitors of M. tuberculosis RecA intein splicing. inhibition, %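 (about 9 µM by stock and volumes)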. cell-free RecA intein splicing, fluorescence. actives 0.75% (n = 290,000); in the data active means inhibition above about 30%; inconclusive means no clear call, values can overlap the other calls;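 further: 0% = vehicle wells and 100% = reference inhibitor control wells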
Target sequence (P9WHJ3 whole entry, looked up, canonical isoform): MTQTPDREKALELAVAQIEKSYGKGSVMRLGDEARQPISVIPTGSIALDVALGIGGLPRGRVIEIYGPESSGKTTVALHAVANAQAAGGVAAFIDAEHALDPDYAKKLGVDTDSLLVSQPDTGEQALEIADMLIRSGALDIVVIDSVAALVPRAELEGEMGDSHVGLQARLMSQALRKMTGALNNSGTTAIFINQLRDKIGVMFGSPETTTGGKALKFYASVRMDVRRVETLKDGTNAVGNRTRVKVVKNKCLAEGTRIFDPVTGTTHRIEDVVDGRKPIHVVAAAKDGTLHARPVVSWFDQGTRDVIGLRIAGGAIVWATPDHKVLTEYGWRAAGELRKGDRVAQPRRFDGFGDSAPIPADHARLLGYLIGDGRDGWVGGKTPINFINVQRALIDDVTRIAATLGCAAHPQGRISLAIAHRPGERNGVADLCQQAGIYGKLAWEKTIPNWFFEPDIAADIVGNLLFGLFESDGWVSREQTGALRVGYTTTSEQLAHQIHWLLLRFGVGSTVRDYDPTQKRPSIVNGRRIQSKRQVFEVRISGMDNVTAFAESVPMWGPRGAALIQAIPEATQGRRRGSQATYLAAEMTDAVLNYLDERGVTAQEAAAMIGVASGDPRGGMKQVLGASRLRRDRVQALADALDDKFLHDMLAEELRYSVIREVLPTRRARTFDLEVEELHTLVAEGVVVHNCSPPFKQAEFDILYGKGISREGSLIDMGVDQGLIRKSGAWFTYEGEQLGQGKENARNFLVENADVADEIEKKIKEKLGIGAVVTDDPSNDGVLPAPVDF
Mtb H37Rv = M. tuberculosis H37Rv growth inhibitors, H37Rv strain (AID 1626); M. tuberculosis H37Rv growth inhibition; higher % means a stronger effect; one-dose inhibition, % at 10 µM; IC50 in µM for titrated hits; actives 0.95% (n = 220,000);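 active means confirmed in a dose series; inconclusive means inhibition above 80% but not taken into the dose series; inactive means below 80% or under 30% at every dose of the series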;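 further: bacteria incubated seven days before Alamar blue readout; 0% = bacteria only wells and 100% = bacteria with antibiotic wells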
Arbovirus inh repeat = also measured in Arbovirus inh; calls as there; inhibition, %; measured here: 10K subset replicate screen; many hits read low in the repeat;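 first of two repeat runs on a subset; 0% = infected and 100% = uninfected wells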
* = called active by the depositor; u = inconclusive; x = not tested or not shown. Not all compounds are listed; count on the stated rates, not on these rows.

The opening three records as a preview:
SMILES | Arbovirus inh | YopH inh | Mtb betalactam | RecA splice inh | Mtb H37Rv | others
CC1CC(=O)N(CC(=O)NC2CCCCC2)c2ccccc2S1 (centres undefined) | x | x | 3.1 | -0.4 | x
Cc1ccc(OCCCSc2n[nH]c(N)n2)cc1 | -0.1 | x | -0.4 | 0.8 | -3.1%
O=C(c1ccco1)N1CCN(C(=O)c2ccc(CS(=O)c3cccc(Cl)c3)o2)CC1 (centres undefined) | x | x | 4.4 | -1.8 | x

All compounds of this part, from the first entry:
SMILES | Arbovirus inh | YopH inh | Mtb betalactam | RecA splice inh | Mtb H37Rv | others
CC1CC(=O)N(CC(=O)NC2CCCCC2)c2ccccc2S1 (centres undefined) | x | x | 3.1 | -0.4 | x
Cc1ccc(OCCCSc2n[nH]c(N)n2)cc1 | -0.1 | x | -0.4 | 0.8 | -3.1%
O=C(c1ccco1)N1CCN(C(=O)c2ccc(CS(=O)c3cccc(Cl)c3)o2)CC1 (centres undefined) | x | x | 4.4 | -1.8 | x
CCC1CCCCN1c1ccc([N+](=O)[O-])cc1/C=N/NC(=O)Cn1c2ccccc2c(=O)c2ccccc21 (centres undefined) | -3.2 | -13.0 | 4.9 | -2.2 | 5.8%
O=C(Cc1ccccc1)NNC(=O)c1ccc(NC(=O)c2ccccc2)cc1 | -3.1 | x | -5.1 | -2.8 | 4.2%
CC(=O)c1ccc(NC(=S)N2CCN(S(=O)(=O)c3ccc(F)cc3)CC2)cc1 | x | x | 3.7 | -0.5 | x
COc1ccc(Oc2cc(NC(=O)c3nn(C)cc3[N+](=O)[O-])cc([N+](=O)[O-])c2)cc1 | -32.9 | -1.2 | u | 3.2 | -4.7%
O=C(c1cccc2ccccc12)n1nnc2ccccc21 | x | -18.9 | 3.7 | 21.1 | -0.2%
O=[N+]([O-])c1ccc(N2CCSCC2)cc1O | x | x | 0.5 | 4.7 | -13.4%
CC1Cc2ccccc2N1C(=O)c1ccc2c(c1)nnn2C (centres undefined) | -0.5 | -25.0 | -1.0 | -1.2 | 5.0%
O=C(N/N=C/c1c[nH]c2ccc(Br)cc12)C1CC1 | x | x | 2.8 | 0.2 | -10.6%
Cc1nnc(SCC(=O)N2CCN(S(=O)(=O)c3ccc(Cl)cc3)CC2)[nH]c1=O | 5.3 | -36.3 | 0.8 | -1.5 | -6.4%
Cc1cc(C)nc(SCc2nnc(SCC(=O)Nc3cc(C(F)(F)F)ccc3Cl)o2)n1 | 4.4 | -12.6 | 8.7 | 1.2 | -6.7%
CC(=O)c1cccc(NC(=O)COC(=O)c2cccc(N3C(=O)c4ccccc4C3=O)c2)c1 | -0.7 | -21.4 | -0.1 | -1.9 | -7.1%
COC(=O)c1ccc(COC(=O)c2ccc(SC)cc2OC)cc1 | -10.8 | -25.6 | 52.8 | 0.2 | 4.0%
CCOc1ccccc1NC(=O)c1ccccc1-c1nc(-c2ccccc2)no1 | -6.3 | -32.9 | 3.0 | 2.4 | -8.7%
COc1ccc2nc(N=NC3=C(O)CC(C)(C)CC3=O)sc2c1 | -29.8 | x | -2.2 | 5.1 | u
COc1cc(/C=C/C(=O)c2ccc(C)cc2)ccc1OCC#N | -46.7 | -21.0 | -0.7 | 2.0 | 8.8%
COc1ccc(NC(=S)N(CCc2ccc(OC)c(OC)c2)Cc2ccccn2)cc1 | 7.2 | x | -9.1 | -2.8 | 1.4%
Cc1cc(=O)oc2ccc(OCC(=O)N3CCc4ccccc43)cc12 | 2.1 | -37.9 | -4.4 | -1.3 | 1.3%
CCOc1ccc(NC(=S)Nc2cc(C)[nH]n2)cc1 | 3.0 | x | -0.4 | -0.1 | 63.6%
COc1ccccc1NC(=O)c1ccc2c(c1)nnn2C | 17.6 | x | 6.5 | 0.9 | 7.1%
CN(C)c1ccc(CNC(=O)c2cc(S(=O)(=O)N3CCCC3)cn2C)cc1 | x | x | 3.0 | -3.4 | x
Cc1ccc(-c2nc(-c3cccnc3)no2)c(C)c1 | 2.3 | -27.9 | 8.8 | 2.7 | -4.8%
COc1cc(CNCc2ccc(OC)cc2OC)cc(OC)c1 | x | x | -5.5 | -1.9 | x
Cc1ccc(C(=O)N/C(=C\c2ccccc2)C(=O)NCCN2CCOCC2)cc1 | x | x | -0.2 | -0.2 | x
COc1ccc(C2CC(c3ccccc3)Nc3ncnn32)cc1 (centres undefined) | 3.2 | -19.2 | u | -0.3 | 8.2%
COc1ccc(NC(=O)N2CCN(c3ccc([N+](=O)[O-])cc3)CC2)cc1OC | 2.9 | x | -5.7 | 1.2 | 6.2%
CCOC(=O)C1CCN(S(=O)(=O)c2ccc(-c3nc4ccccc4s3)s2)CC1 | -5.8 | -29.8 | -8.4 | -0.1 | -0.2%
C=COC(=O)c1sc2nc(C)cc(C)c2c1N | x | x | 3.0 | -20.2 | 0.7%
Cc1cc(C)cc(OC(=O)CS(=O)c2ccc(C(F)(F)F)cc2[N+](=O)[O-])c1 (centres undefined) | -43.1 | 0.4 | 77.1 | 43.0* | -2.7%
Cc1ccc(-n2nc(-c3cccnc3)cc2C(=O)N2CCOCC2)c(C)c1 | 12.2 | -28.3 | -1.7 | 4.5 | 3.3%
O=C(CSc1ccc(Cl)cc1)Nc1ncccn1 | -3.5 | 4.3 | -3.7 | -2.0 | 1.7%
CN(C)S(=O)(=O)c1ccc(NC(=O)N2CCN(c3cccc(C(F)(F)F)c3)CC2)cc1 | -19.6 | -23.9 | -5.0 | 1.3 | 10.8%
Cc1ccc(C)c(Cn2c(=O)n(CCC(=O)NCc3ccco3)c(=O)c3ccccc32)c1 | -17.8 | -13.5 | 11.4 | 0.3 | x
CN(C)c1cccc(C(=O)OC(C(=O)Nc2ccc(Cl)cc2C(F)(F)F)c2ccccc2)c1 (centres undefined) | 9.7 | -6.0 | -2.3 | -2.5 | -3.9%
Cc1ccc(S(=O)(=O)N2C(=O)CCC2C(=O)O/N=C(\N)c2ccccc2)cc1 (centres undefined) | x | x | -7.1 | -0.1 | x
O=C(c1ccc(Cl)c(Cl)c1)N1CCOCC1 | 1.4 | -25.9 | -10.4 | 2.2 | 0.5%
NC(=O)c1ccc(NCCc2ccccc2)c([N+](=O)[O-])c1 | -11.9 | x | 3.0 | 1.8 | 4.2%
CSc1sc(-c2nnc(SCC(=O)Nc3ccc(Cl)cc3)n2C)c2c1C=CCC2 | x | x | 28.7 | -7.0 | -7.4%
CCN1CCN(C(=O)Nc2cc(Cl)ccc2OC)CC1 | 3.3 | x | 2.5 | -0.5 | 1.6%
C/C(=N\NC1=N[C@H]2CS(=O)(=O)C[C@H]2S1)c1ccccc1 | x | x | -5.2 | x | -7.8%
O=C(CC12CC3CC(CC(C3)C1)C2)Nc1nncs1 | x | x | -0.6 | 1.9 | x
CCOC(=O)C1=C(COC(=O)/C=C/c2cc(OC)c(OC)c(OC)c2)NC(=O)NC1C (centres undefined) | x | x | -10.7 | 2.8 | x
CCOC(=O)c1ccc(-n2c(C)nc3c(cnn3-c3ccccc3C)c2=O)cc1 | 24.5 | -28.0 | 2.4 | 0.3 | 4.1% | Arbovirus inh repeat=2.6
COc1ccc(N(C(=O)c2snc(C(N)=O)c2N)C(C(=O)NC2CCCC2)c2ccc(F)cc2)c(OC)c1 (centres undefined) | x | x | 9.5 | 1.7 | x
O=C(NCCN1CCOCC1)c1ccc(CSc2nc3ccncc3n2Cc2ccc(F)cc2)cc1 | -1.6 | x | 2.5 | -0.7 | 0.6%
Cn1c(NCC(O)c2ccccc2)nc2c1c(=O)n(Cc1ccc(Cl)cc1)c(=O)n2C (centres undefined) | -30.1 | -11.8 | 69.2 | -8.7 | 28.6%
FC(F)Oc1ccc(-c2c[n+]3c(n2-c2ccccc2)CCCCC3)cc1 | x | x | 5.6 | -0.7 | 2.1%
O=C(c1cccc(COc2ccc(Cl)cc2Cl)c1)N1CCN(c2ccccn2)CC1 | -25.2 | -14.2 | 83.5 | 13.3 | 17.2%
O=C(Nc1oc2ccc(Cl)cc2c(=O)c1-c1ccc(F)cc1)c1ccco1 | x | x | 4.0 | -1.9 | x
CC(=O)N1N=C2/C(=C/c3ccccc3)CCCC2C1c1ccccc1 (centres undefined) | -15.1 | x | 0.5 | 2.0 | 6.3%
Nc1cc(C(=O)O)ccc1Nc1ccc(F)c(F)c1 | 1.7 | -26.4 | -0.2 | x | 2.8%
O=C(CN1C(=O)S/C(=C\c2ccc(O)c([N+](=O)[O-])c2)C1=O)Nc1ccc(N2CCOCC2)cc1 | x | x | 3.4 | -0.7 | x
CCCCCOc1ccc(C(=O)N(Cc2ccco2)C2CCS(=O)(=O)C2)cc1 (centres undefined) | -3.5 | -22.1 | -1.9 | 5.9 | -0.9%
CCOc1ccc(S(=O)(=O)N2CCN(C(=S)NCc3ccco3)CC2)cc1 | 5.8 | -18.7 | -5.6 | -1.4 | -2.6%
N=C1c2ccccc2CN1NC(=O)CC12CC3CC(CC(C3)C1)C2 | -7.7 | -21.0 | 98.5 | -1.6 | u
COc1ccc(CCn2c(C)c(C(C)=O)c3cc(OC(=O)c4ccco4)ccc32)cc1OC | -3.8 | -2.5 | 0.1 | 1.7 | 3.7%
COc1ccc(Cl)c(NC(=O)Cn2nnc(-c3ccccc3N)n2)c1 | -3.7 | -34.9 | -2.9 | -3.1 | -2.3%
CCN1CCN(C(=O)c2cn(CCOC)c(=O)c3c2c2ccccc2n3C)CC1 | -1.7 | 1.8 | -4.8 | 1.3 | 2.9%
(further entries)
SMILES | Arbovirus inh | YopH inh | Mtb betalactam | RecA splice inh | Mtb H37Rv | others
CCN(CC)C(=O)C(C)OC(=O)COc1ccc(Cl)cc1Cl (centres undefined) | 8.0 | -24.3 | -0.1 | 1.9 | 1.6%
Cc1cc(-c2cccc(Br)c2)c(C#N)c(N)n1 | 6.4 | x | -4.4 | -0.1 | 2.9%
COc1cc(OC)c(NC(=O)c2ccco2)cc1Cl | 3.0 | -70.4 | 6.1 | 5.7 | 6.6%
O=C(CN1CC[n+]2c(-c3cccs3)csc21)c1ccc(Br)cc1 | -12.5 | -28.2 | -10.4 | 2.4 | 1.1%
O=C(N/N=C/c1cccs1)c1cc(-c2ccncc2)nc2ccccc12 | -13.4 | -18.6 | 3.4 | 7.4 | 1.0%
COc1cccc(NC(=O)Cn2nnc(-c3ccccc3N)n2)c1 | -11.3 | -29.5 | -1.7 | 2.1 | -8.6%
CN1CCN(S(=O)(=O)c2ccc(NC(=O)C(C)(C)C)cc2)CC1 | 9.0 | 0.9 | -14.3 | 0.1 | -5.3%
CCCS(=O)(=O)c1nc(S(=O)(=O)c2ccc(C)cc2)c(NCCCN2CCOCC2)s1 | 2.7 | -44.0 | -1.8 | 0.9 | 0.6% | Arbovirus inh repeat=7.1
COC(=O)c1sccc1NC(=O)CSc1nnnn1-c1ccccc1C | 5.4 | -11.1 | 4.6 | -0.1 | -5.5%
O=C(NCCCN1CCOCC1)/C(=C/c1cccs1)NC(=O)c1ccccc1 | x | x | 7.3 | -0.2 | x
CCc1nnc(NC(=O)CCC(=O)N2CCN(c3cc(Cl)ccc3C)CC2)s1 | x | x | 13.8 | 3.2 | x
Cc1sc(N/N=C/c2cccnc2)nc1-c1ccc(Cl)cc1 | -2.9 | -40.3 | -10.3 | -1.4 | 1.8%
O=C(Nc1ccc(NC(=O)C2CC2)cn1)c1ccccc1Cl | -3.8 | 2.8 | -8.6 | 0.7 | 3.0%
Cc1nc(NC(=S)NC(=O)COc2ccccc2Cl)ccc1Br | -2.9 | -29.1 | 56.3 | 1.2 | u
N#CC1C(=O)NC(N2CCN(c3ccccc3)CC2)=NC12CCCCC2 (centres undefined) | -11.3 | -28.4 | -2.3 | 1.0 | -4.7%
COc1ccc(-c2nnc(SCC(=O)Nc3cccc(Cl)c3)o2)cc1 | -1.7 | 0.4 | 99.5 | -1.3 | u
COc1ccc(CNC(=O)c2ccc(Br)cc2)cc1 | -7.1 | x | -6.3 | 0.4 | -2.1%
CC1=C(C(=O)O)N2C(=O)C(NC(=O)c3ccn(C)n3)C2SC1 (centres undefined) | -3.9 | -21.8 | -4.2 | 0.1 | 0.2%
CCOc1ccccc1-n1c(SCC(=O)NC(C)CC)nnc1-c1ccoc1C (centres undefined) | 5.9 | 7.9 | -5.0 | 2.8 | 22.3%
COC(=O)CCN(c1ccccc1)S(=O)(=O)c1cc(-c2cc(C)no2)ccc1C | x | x | 0.0 | 5.5 | x
Cc1c(C=N)c(O)n(C)c(=O)c1C#N | x | x | -2.7 | 0.7 | -0.8%
O=C(O)c1cccnc1SC1CC(=O)N(c2ccccc2)C1=O (centres undefined) | x | x | -8.2 | -0.7 | 2.7%
O=C(CCN1C(=O)c2ccccc2C1=O)NCc1cccc(Cl)c1 | x | x | -5.7 | -1.8 | x
O=C(Cn1cnc2ccccc21)N/N=C/c1cccs1 | -5.7 | -10.9 | -1.8 | -0.7 | 2.9%
